Rango complex inh – prevents formation of the Rango-importin beta complex. Q14974. Rango CFP/YFP FRET sensor + importin beta, 45 min. Potency, µM (doses to about 92.2 µM), without a hit: at the top dose inhibition of complex formation. hit rate 0.031% among 340,000; active = rising FRET ratio curve, often small or poorly fitted; inconclusive = mostly compound fluorescence or quenching in the first reads; inactive = flat curves in all reads;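 further: potency means the concentration at half of the fitted maximal effect; 0% = DMSO wells and 100% = buffer wells lacking importin beta; nearly all actives have a fitted effect of over 15% in size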
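Inhibition scored from the CFP 486 nm/YFP 530 nm FRET ratio 45 min after adding 0.125 microM importin beta to 50 nM Rango biosensor preincubated 5 min with compound (room temperature, PBS with DTT, Tween-20, BSA). No-importin wells as positive control.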
GLA inh pH 4.5 – inhibitors of human alpha-galactosidase A at pH 4.5. P06280. purified enzyme, 4-MU-alpha-Gal fluorescence, pH 4.5. activity change, negative = inhibition, % at 105 µM. 230,000 tested, under 10 active. AID 1467; inconclusive = small, poorly fitted or top-dose-only inhibition, or a rising curve; inactive = flat fitted curve, though single readings scatter; no compound was filed as active;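 further: 0% = full activity with enzyme and -100% = basal without enzyme; dose as in the result columns while the protocol names 77 µM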
Target sequence (P06280 whole entry, looked up): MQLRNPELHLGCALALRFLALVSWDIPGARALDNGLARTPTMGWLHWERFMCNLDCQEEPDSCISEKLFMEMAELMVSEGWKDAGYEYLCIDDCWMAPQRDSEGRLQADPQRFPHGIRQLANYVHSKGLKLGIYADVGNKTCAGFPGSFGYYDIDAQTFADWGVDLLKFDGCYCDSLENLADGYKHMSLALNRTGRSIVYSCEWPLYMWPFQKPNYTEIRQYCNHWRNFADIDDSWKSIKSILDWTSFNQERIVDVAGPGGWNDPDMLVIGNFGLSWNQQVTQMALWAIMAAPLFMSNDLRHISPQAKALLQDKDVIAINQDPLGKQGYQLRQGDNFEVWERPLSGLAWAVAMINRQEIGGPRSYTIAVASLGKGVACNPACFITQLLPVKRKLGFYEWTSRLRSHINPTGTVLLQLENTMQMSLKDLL
Rango dissoc inh – inhibition of RanGTP-driven Rango-importin beta dissociation; O95149+P62826; Biochemical FRET Rango-importin beta, RanGTP-induced dissociation; Potency, µM (top dose mostly 46.1 µM), for inactives: at the top dose activity change, negative = inhibition; hit rate 0.071% among 340,000; active means falling FRET ratio curve, often poorly fitted, with flat reads before Ran was added; inconclusive means other falling curves, or compound fluorescence or quenching; inactive means flat or rising ratio curve;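 further: potency means the concentration at half of the fitted maximal effect; % of control where 0% means no effect; nearly all actives have a fitted effect of over 45% in size; -100% = wells without RanGTP and RCC1; the record marks most hits as doubtful in a second field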
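Compounds sat 5 min at room temperature with 0.1 uM Rango biosensor plus 0.25 uM importin beta, then FRET pre-read. RanGTP-RCC1 (0.6 uM Ran, 2mM GTP, 0.2 uM RCC1) added for 45 min, and the CFP/YFP post-read measured blocked complex dissociation.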
miR-21 reporter – miR-21 reporter, rising signal | Potency, µM (titrated, usually from 38.3 µM), inactives show at the top dose reporter change, positive = more light | HeLa miR-21 FLuc reporter, luciferase, 48 h | AID 2288 | 340,000 tested, under 10 active; active = well fitted rising curve with a large enough effect; inconclusive = small, poorly fitted or top-dose-only effect; inactive = no such curve, though single readings can be large or run the other way;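 further: % of control where 0% means no effect; miR-21 action dims this reporter so a rising signal means less miR-21 action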
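HeLa miR-21-FLuc reporter line, endogenous miR-21; 2000 cells/well in DMEM/10% FBS; compound titration up to ~40uM final, 48 h, 37 degree Celsius; luciferase detection reagent, 15 min lysis, CCD luminescence.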
* = called active by the depositor; ? = inconclusive; . = no result given; & = joins results of further samples. This is a subset; rates above refer to the full screens.

SMILES	Rango complex inh	GLA inh pH 4.5	Rango dissoc inh	miR-21 reporter
CCOC(=O)N1CCN(C(c2ccc(C)cc2)c2sc3nc(C)nn3c2O)CC1 (centres undefined)	1.7%	8.8	2.1%	-0.2%
O=c1c(Cl)c(N2CCN(c3ccc(F)cc3)CC2)cnn1-c1nc2ccccc2s1	5.2%	3.5	18.3%	-64.3%
Cc1ccc(S(=O)(=O)N(CC(=O)N/N=C/c2ccco2)c2cc(Cl)cc(Cl)c2)cc1	0.8%	-27.7	1.2%	-2.8%
CN1CCc2c(sc(NC(=O)Cc3ccc(F)cc3)c2C(N)=O)C1	-14.5%	.	?	-9.0%
O=C(CS(=O)c1cccc(C(F)(F)F)c1)Nc1ccc(Cl)cc1Cl (centres undefined)	0.2%	-9.3	1.2%	-8.1%
CC1=NNC(=O)C1C(c1ccc(F)cc1)C(C#N)C#N (centres undefined)	0.1%	.	-13.9%	.
Cc1cccc(OCC(O)Cn2c(N3CCCCC3)nc3c2c(=O)[nH]c(=O)n3C)c1 (centres undefined)	-5.4%	.	0.2%	1.1%
Cc1ccc(NC(=O)CCc2ccc(C)o2)c(C)c1	-1.1%	.	1.1%	9.2%
O=C(COC(=O)/C=C/c1cccc(Br)c1)NCc1ccco1	1.2%	.	-0.7%	.
Cc1ccc2cc(CN(C(=O)c3ccncc3)C(C)C)c(=O)[nH]c2c1	-5.4%	7.8	-10.6%	-4.4%
O=C(N/N=C/c1sc(N2CCOCC2)nc1-c1ccccc1)c1ccccc1O	?	-5.1	?	28.9%
CCOc1ccc(-c2nc(N)ncc2Oc2ccc(OC)cc2)c(O)c1	-3.3%	-14.7	2.2%	-21.9%
CCOc1ccc(NC(=O)N(C2CCCC2)C2CCN(C(C)=O)CC2)cc1	0.9%	9.4	14.1%	-5.4%
CCN1CCN(c2ccc(S(=O)(=O)N3CCCCC3)cc2NC(=O)/C=C/c2ccc(F)cc2)CC1	-1.5%	.	0.5%	.
COc1ccc(Cc2nnc(NC(=O)Cn3cnc4c3c(=O)n(C)c(=O)n4C)s2)cc1	5.7%	-2.1	0.0%	-3.8%
O=c1c2c(nc3cc(-c4ccc(F)cc4)[nH]n13)CCCC2	0.5%	6.7	11.1%	-25.6%
O=c1c2cn[nH]c2nc(SCc2c(F)cccc2F)n1-c1ccc(Cl)cc1	-0.4%	?	-12.5%	12.0%&-1.7%
COCc1c(CCl)cnc(C)c1O	3.1%	0.2	9.1%	-23.3%
Cc1cc(F)ccc1S(=O)(=O)N(C(=O)c1ccncc1)c1ccc(OC(=O)c2ccncc2)cc1	4.1%	-7.0	3.6%	-0.6%
S=C(N/N=C1\CCc2ccccc21)NC1CCCCC1	1.9%	-1.7	13.5%	-43.9%
O=C1c2ccccc2C(Nc2ccc(-c3nc4ccccc4[nH]3)cc2)N1Cc1ccco1 (centres undefined)	-1.6%	0.5	-10.5%	0.9%
COc1ccc(OC(C)C(=O)N2CCOCC2)cc1 (centres undefined)	5.0%	3.0	0.2%	-4.3%
COc1cc(C(=O)COC(=O)c2ccc([N+](=O)[O-])o2)cc(OC)c1OC	-1.6%	.	-3.6%	.
O=C(Nc1ccc(S(=O)(=O)N2CCCC2)cc1)c1cccnc1Cl	2.1%	.	-7.8%	.
C=C(C)COc1ccc(-c2ncncc2-c2ccc(Cl)cc2)c(O)c1	1.5%	.	3.5%	1.5%
CCC(=O)NNc1cc(=O)c2c(=O)n(C)c(=O)n(C)c2[nH]1	4.8%	-14.9	0.0%	-0.3%
CCCC(=O)Nc1ccccc1-c1nnn(CC(=O)Nc2ccc(OCC)cc2)n1	3.1%	14.7	-1.7%	-0.1%
COc1ccc(C(=O)NNC(=S)NC(=O)c2ccc(OC)cc2)cc1	-1.5%	.	0.9%	17.0%
COc1cc2c(cc1OC)C(Cc1ccc(O)cc1)N(C)CC2 (centres undefined)	-3.8%	.	0.0%	4.2%
COc1ccc([C@H]2C(C(=O)O)=C[C@@H](C(C)(C)C)N2S(=O)(=O)c2ccccc2)cc1	1.1%	.	7.6%	.

7 successive records already listed, for reference:
SMILES	Rango complex inh	GLA inh pH 4.5	Rango dissoc inh	miR-21 reporter
O=C1c2ccccc2C(Nc2ccc(-c3nc4ccccc4[nH]3)cc2)N1Cc1ccco1 (centres undefined)	-1.6%	0.5	-10.5%	0.9%
COc1ccc(OC(C)C(=O)N2CCOCC2)cc1 (centres undefined)	5.0%	3.0	0.2%	-4.3%
COc1cc(C(=O)COC(=O)c2ccc([N+](=O)[O-])o2)cc(OC)c1OC	-1.6%	.	-3.6%	.
O=C(Nc1ccc(S(=O)(=O)N2CCCC2)cc1)c1cccnc1Cl	2.1%	.	-7.8%	.
C=C(C)COc1ccc(-c2ncncc2-c2ccc(Cl)cc2)c(O)c1	1.5%	.	3.5%	1.5%
CCC(=O)NNc1cc(=O)c2c(=O)n(C)c(=O)n(C)c2[nH]1	4.8%	-14.9	0.0%	-0.3%
CCCC(=O)Nc1ccccc1-c1nnn(CC(=O)Nc2ccc(OCC)cc2)n1	3.1%	14.7	-1.7%	-0.1%

Next part:
SMILES	Rango complex inh	GLA inh pH 4.5	Rango dissoc inh	miR-21 reporter
COc1ccc(-c2csc(NC(=O)COC(=O)c3ccco3)n2)cc1	5.5%	-11.0	9.3%	-62.5%
Clc1ccc(SCCN2CCNCC2)cc1	0.7%	0.6	4.0%	-5.1%
CCCNCC(O)Cn1c2ccccc2n2c(=O)cc(C)c(C#N)c12 (centres undefined)	-3.5%	0.6	5.5%	9.9%
CCOc1ccc2nc(NC(=O)CS(=O)(=O)c3ccc(C)cc3)sc2c1	-1.4%	3.0	0.4%	-18.1%
COc1ccc(-c2ccc(SCC(=O)Nc3cc(C)on3)nn2)cc1OC	-3.1%	1.2	-1.4%	-22.6%
C/C(CC(=O)Nc1cc(C)cc(C)c1)=N\NC(=O)c1ccccn1	-0.1%	3.3	18.5%	-63.7%
O=C(NNC(=O)c1ccccc1Cl)c1ccco1	-4.1%	-1.5	-12.2%	-22.7%
CCCOc1ccc(C(=O)CCC(=O)OCC(=O)N2CCN(S(=O)(=O)c3ccc(C)cc3C)CC2)cc1	-0.9%	.	0.1%	.
Cc1ccc(S(=O)(=O)N(C)CCCC(=O)Nc2cccc3ccccc23)cc1	-2.3%	-2.9	5.3%	28.7%
CSCCC(NC(=O)c1ccccc1Cl)C(=O)N1CCCC(C)C1 (centres undefined)	?	.	-8.9%	.
CC(=O)N1CCCc2cc(S(=O)(=O)N3CCCC(C(=O)N4CCN(c5cccc(Cl)c5)CC4)C3)ccc21 (centres undefined)	-0.4%	.	-1.9%	?
CC(=O)Nc1sc(NC(=O)c2ccc(C)cc2)nc1-c1cccs1	1.2%	4.7	-0.5%	-2.2%
O=C(NCCCN1CCOCC1)c1ccc(Cl)cc1Cl	6.1%	.	-3.0%	-23.0%
CCN(c1ccc(NC(=O)COC(=O)c2ccc([N+](=O)[O-])o2)cc1)C(C)C	3.8%	.	-7.3%	.
OCCC1CN(C2CCC2)CCN1Cc1ccc(F)c(F)c1 (centres undefined)	2.1%	.	1.6%	-1.9%
COc1cc(N)c(Cl)cc1NC(=O)c1ccccc1	1.3%	6.1	0.1%	-12.0%
Cc1csc(NC(=O)CSc2nc3ccccc3c(=O)[nH]2)n1	-0.3%	-6.4	?	-4.9%
COC(=O)c1cn(NC(=O)c2cc(OC)cc(OC)c2)c(=O)c2ccccc12	-0.8%	1.8	8.6%	-3.8%
COc1cc2c(cc1OC)C(C)N(C(=O)Cn1ncc3c1-c1ccccc1OC3)CC2 (centres undefined)	2.6%	0.6	?	-10.1%
CCCCC[n+]1ccn(C2=C([O-])c3ccccc3C(=O)/C2=N\S(=O)(=O)c2ccc(Br)cc2)c1	-2.2%	-0.5	-1.2%	1.6%
CS(=O)(=O)N1CCN(c2ccc(C(=O)NC3C4CC5CC(C4)CC3C5)cc2[N+](=O)[O-])CC1 (centres undefined)	-0.2%	-1.4	-1.0%	-27.7%
CN(C)S(=O)(=O)c1cccc(NC(=O)CCc2c[nH]c3ccccc23)c1	4.6%	-8.6	34.4%	1.5%
O=C(CN1C(=O)CSC1=O)Nc1ccc2c(c1)OCCO2	-3.9%	10.0	-1.1%	-9.6%
Cc1onc(-c2c(F)cccc2Cl)c1C(=O)NC(=S)NCc1cccnc1	-2.4%	3.9	-10.2%	-16.8%
c1ccc(CN2C3=NCCN3c3ccccc32)cc1	-4.8%	8.3	-1.3%	-3.0%
C/C(CCN1CCCCc2nc(C)c(C)cc21)=N\O[C@@H](C)CN1CCCCc2nc(C)c(C)cc21	.	-3.9	.	15.9%
COc1ccc(NC(=O)N2CC(C)OC(C)C2)cc1OC (centres undefined)	-3.7%	4.8	0.4%	0.2%
O=S(=O)(NC1=NCCCCCC1)c1cccs1	-2.6%	3.4	-8.5%	-2.3%
O=C(COc1ccc(Cl)cc1)Nc1ccc2oc(-c3ccncc3)nc2c1	-0.8%	-0.3	0.1%	-9.3%
O=S(=O)(c1ccccc1)N1N=C(c2cccs2)CC1c1cccc(O)c1 (centres undefined)	?	.	1.4%	1.2%
COC(=O)Cc1ccc(NC(=O)c2ccc(Br)o2)cc1	-2.6%	12.7	-7.7%	-52.7%
CC1CC(C)CN(C(=O)c2ccc(S(=O)(=O)N3CCCC3)cc2)C1 (centres undefined)	1.4%	.	-17.5%	-6.7%
O=c1c2cc(Br)cc(Br)c2oc2nc3n(c(=O)c12)CCCS3	.	-3.3	.	3.4%
NC(=S)N/N=C/C=C/c1ccccc1	1.4%	-5.0	-4.2%	-10.4%
O=C(/C=C/c1ccccc1)N1CCC(Cc2ccccc2)CC1	2.8%	-9.7	0.8%	-39.3%
COc1ccc2c(c1)C(=O)[C@@H](OC(=O)NCc1ccc3c(c1)OCO3)[C@H](c1ccc(OC)c(Br)c1)O2	.	-0.6&-9.0	.	-21.3%
CCOc1ccc(NC(=O)C(C)Sc2nccn2C)cc1 (centres undefined)	9.1%	.	-0.9%	-19.5%
O=C(NC1CCCc2ccccc21)c1ccccc1Br (centres undefined)	1.2%	-4.4	-2.3%	-0.9%
CC1CCCCN1C(=O)COC(=O)C1CCN(S(=O)(=O)c2ccc3c(c2)OCCO3)CC1 (centres undefined)	0.5%	.	4.8%	.
CC1(C)CC(=O)c2sc(NC(=O)CCS(=O)(=O)c3ccccc3)nc2C1	-3.4%	-2.3	0.6%	14.2%
C=CCN1C(=O)CN=C1Nc1ccc(F)cc1	0.2%	-10.0	1.9%	0.2%
Cc1cc(C)nc(N2N=C(C(C)(C)C)CC2=O)n1	5.3%	3.3	-1.9%	0.6%
CC(=O)c1cccc(N/C=C\c2nnnn2-c2ccc(F)cc2)c1	-1.7%	2.9	4.1%	-4.0%
COc1ccc(NC(=O)CN(C)C(=O)Cc2n[nH]c(=O)c3ccccc23)cc1	-0.5%	.	-5.6%	.
CCCn1nc2cc(C(=O)NCc3ccc(OC(F)(F)F)cc3)ccc2c1OCC	1.9%	-15.5	2.5%	6.6%
CC(C)(C)OC(=O)C[C@@H]1C/C=C\C[C@@H](CC(=O)NCCO)C(=O)N2CCC[C@H]2COC1=O	-0.8%	.	-16.5%	.
CC(=N\NC(=O)c1ccccc1)/C(=N/O)C(=O)Nc1ccccc1	-1.6%	.	-3.9%	0.8%
CSc1ccc(S(=O)(=O)NCC(=O)OCC(=O)N2CCCC2=O)cc1[N+](=O)[O-]	1.3%	.	-13.7%	.
COc1ccc(C)cc1NC(=O)COC(=O)c1ccc(OCc2ccc(Cl)cc2Cl)c(OC)c1	-0.4%	-0.3	-7.1%	-2.7%
Cc1ccc(C(=O)Nc2nc(N)n(-c3ccccc3)n2)cc1	-0.4%	-7.2	-3.5%	-26.3%
Next section:
SMILES	Rango complex inh	GLA inh pH 4.5	Rango dissoc inh	miR-21 reporter
CCN1CCN(Cc2c3ccccc3cc3ccccc23)CC1	4.1%	.	10.9%	-13.6%
Cc1ccc(N(C(=O)c2snc(C(N)=O)c2N)C(C(=O)NC2CCCC2)c2ccco2)cc1 (centres undefined)	-2.9%	.	-13.7%	3.8%
CC(C)c1ccccc1NC(=O)C1C2C=CC(C2)C1C(=O)O (centres undefined)	8.0%	.	-4.1%	-0.7%
CC(=O)NNC(=O)CCC(=O)Nc1ccccc1	4.0%	2.8	1.6%	-1.8%

Screens from PubChem.
